StopGo FLuc = Primary qHTS Assay for Foot and Mouth Disease Virus Antivirals against NCGC Sytravon and CBC Compound Libraries: Firefly Luciferase Signal; Potency, µM (titrated, usually from 57.5 µM), without a hit: top-dose signal change, negative = less light; 120,000 tested, 0.23% active; AID 1745856, 2022; HEK cells with a luciferase reporter of 2A StopGo recoding; active = well fitted falling curve with a large enough effect; inconclusive = small, poorly fitted or top-dose-only effect; inactive = no such curve, though single readings can be large or run the other way; also: nearly all actives have a fitted effect of over 60% in size; overnight with compound
StopGo RLuc = Primary qHTS Assay for Foot and Mouth Disease Virus Antivirals against NCGC Sytravon and CBC Compound Libraries: Renilla Luciferase Signal | HEK cells with a luciferase reporter of 2A StopGo recoding | Potency, µM (doses to about 57.5 µM), without a hit: at the highest dose signal change, negative = less light | AID 1745857, 2022 | 120,000 tested, 0.32% active; active means well fitted falling curve with a large enough effect; inconclusive means small, poorly fitted or top-dose-only effect; inactive means no such curve, though single readings can be large or run the other way; also: nearly all actives have a fitted effect of over 55% in size; overnight with compound
* = called active by the depositor; ? = inconclusive; & = joins results of further samples; [ ] = another dose, or the depositor's remark. % is scaled to controls: 0 for no effect and ±100 for the full control effect; potency is read from the fitted curve at half-maximal effect.

SMILES | StopGo FLuc | StopGo RLuc
O=C(Cc1ccc(F)cc1)NCCc1cnc(-c2ccccc2)[nH]1 | -8% | -12%
OC(C#CCN1CCC(c2ccccc2)C1)(c1ccccc1)C1CCCCC1 (stereo not given) | -1% | 4%
O=C(Nc1ccc2nc(SCC(=O)N3CCOCC3)sc2c1)c1ccc(Cl)cc1 | -11% | -4%
O=C(OCCOc1cccc(Br)c1)c1ccccc1C(=O)c1ccc(Cl)cc1 | 0% | -1%
CCn1cc(C(=O)c2cc(Cl)ccc2O)cc1-c1nc2ccccc2c(=O)[nH]1 | 1% | 10%
CNC(=O)C1CCC(Cn2c(=O)c3sccc3n(CC(=O)Nc3ccc(C)c(C)c3)c2=O)CC1 (stereo not given) | 28%&5% | 18%&3%
CCOc1cc(CNCCc2c[nH]c3ccccc23)ccc1OC | -11% | -5%
Cc1cccc(C(=O)Nc2cccc(C(=O)N(C)C)c2)c1 | 104%[activator] | 26%
O=C(Cn1ccc2ccc(F)cc21)Nc1nnc(C2CC2)s1 | -30% | ?
CCCc1nnc(NC(=O)Cc2coc3ccc(C)cc23)s1 | 2%&-14% | -1%&8%
O=C(Nc1ccccc1)N1CCCN(CCc2ccncc2)CC1 | 21% | -1%
C#CCNC(=O)COC(=O)c1cccnc1Nc1cccc(C(F)(F)F)c1 | 22% | -2%
CC(C)c1ccc(N2CC(c3nc(-c4ccccn4)no3)CC2=O)cc1 (stereo not given) | 20% | 22%
CC(C)CN1CCOC(CNC(=O)N2CCN(S(=O)(=O)c3ccc(C#N)cc3)CC2)C1 (stereo not given) | -6% | -7%
Cc1ccc(-c2c3c(=O)n(C)c(=O)n(C)c3c3c(C(F)(F)F)nc4ccccc4n23)cc1 | -17% | -11%
CCCCOc1ccc(S(=O)(=O)Nc2ccc(-c3ccc(N4CCCCC4)nn3)cc2)cc1 | 0% | 29%
COC(=O)c1ccccc1NC(=O)c1cnc2sc(N3CCOCC3)nn2c1=O | -3% | 1%
COc1ccc(/C=C/C(=O)Nc2ccc3nc(N4CCCCC4)cc(C)c3c2)cc1OC | 1% | -9%
O=C(c1cc(-c2csc(-c3ccccc3)n2)c[nH]1)N1CCCC1 | 203%[activator] | -10%
COc1ccc(Cl)cc1C(=O)Nc1ccc(F)c(S(=O)(=O)N2CCOCC2)c1 | 4% | 29%
Cc1cccc(N2C(=O)N(CC(=O)C(C)(C)C)c3ccccc3S2(=O)=O)c1C | -3% | 13%
COc1ccc(CNC(=O)C(C)n2ccc3cc(S(=O)(=O)N4CCCC4)ccc32)cc1OC (stereo not given) | 0% | 24%
CC(OC(=O)c1cc(Br)c[nH]1)C(=O)c1c[nH]c2ccccc12 (stereo not given) | 5% | 5%
CCc1ccccc1NS(=O)(=O)c1ccc2c(c1)OCC(C(=O)N1CCCC1)O2 (stereo not given) | -17% | 102%[activator]
O=C(Nc1ccc(Oc2ccccc2)cc1)c1n[nH]c(=O)c2ccccc12 | 103%[activator] | 0%

Two of the compounds above, field by field:
> CCc1ccccc1NS(=O)(=O)c1ccc2c(c1)OCC(C(=O)N1CCCC1)O2 (stereo not given)
  StopGo FLuc = -17%; StopGo RLuc = 102%[activator]
> O=C(Nc1ccc(Oc2ccccc2)cc1)c1n[nH]c(=O)c2ccccc12
  StopGo FLuc = 103%[activator]; StopGo RLuc = 0%

20 entries from above in another layout:
compound	StopGo FLuc	StopGo RLuc
O=C(Cc1ccc(F)cc1)NCCc1cnc(-c2ccccc2)[nH]1	-8%	-12%
OC(C#CCN1CCC(c2ccccc2)C1)(c1ccccc1)C1CCCCC1 (stereo not given)	-1%	4%
O=C(Nc1ccc2nc(SCC(=O)N3CCOCC3)sc2c1)c1ccc(Cl)cc1	-11%	-4%
O=C(OCCOc1cccc(Br)c1)c1ccccc1C(=O)c1ccc(Cl)cc1	0%	-1%
CCn1cc(C(=O)c2cc(Cl)ccc2O)cc1-c1nc2ccccc2c(=O)[nH]1	1%	10%
CNC(=O)C1CCC(Cn2c(=O)c3sccc3n(CC(=O)Nc3ccc(C)c(C)c3)c2=O)CC1 (stereo not given)	28%&5%	18%&3%
CCOc1cc(CNCCc2c[nH]c3ccccc23)ccc1OC	-11%	-5%
Cc1cccc(C(=O)Nc2cccc(C(=O)N(C)C)c2)c1	104%[activator]	26%
O=C(Cn1ccc2ccc(F)cc21)Nc1nnc(C2CC2)s1	-30%	?
CCCc1nnc(NC(=O)Cc2coc3ccc(C)cc23)s1	2%&-14%	-1%&8%
O=C(Nc1ccccc1)N1CCCN(CCc2ccncc2)CC1	21%	-1%
C#CCNC(=O)COC(=O)c1cccnc1Nc1cccc(C(F)(F)F)c1	22%	-2%
CC(C)c1ccc(N2CC(c3nc(-c4ccccn4)no3)CC2=O)cc1 (stereo not given)	20%	22%
CC(C)CN1CCOC(CNC(=O)N2CCN(S(=O)(=O)c3ccc(C#N)cc3)CC2)C1 (stereo not given)	-6%	-7%
Cc1ccc(-c2c3c(=O)n(C)c(=O)n(C)c3c3c(C(F)(F)F)nc4ccccc4n23)cc1	-17%	-11%
CCCCOc1ccc(S(=O)(=O)Nc2ccc(-c3ccc(N4CCCCC4)nn3)cc2)cc1	0%	29%
COC(=O)c1ccccc1NC(=O)c1cnc2sc(N3CCOCC3)nn2c1=O	-3%	1%
COc1ccc(/C=C/C(=O)Nc2ccc3nc(N4CCCCC4)cc(C)c3c2)cc1OC	1%	-9%
O=C(c1cc(-c2csc(-c3ccccc3)n2)c[nH]1)N1CCCC1	203%[activator]	-10%
COc1ccc(Cl)cc1C(=O)Nc1ccc(F)c(S(=O)(=O)N2CCOCC2)c1	4%	29%

(next part)
SMILES | StopGo FLuc | StopGo RLuc
COc1ccc(-c2cc(C(C)=O)c(C)n2CCC(=O)NCc2ccc(F)cc2)cc1 | -15% | 3%
COc1cccc(-c2nc3cc(NC(=O)c4ccc(C)c([N+](=O)[O-])c4)ccc3o2)c1 | 44%[activator] | 0%
COc1ccccc1NC(=O)c1sc2nc(C)c(C(=O)Nc3ccc(Cl)cc3)c(-c3ccc(Br)cc3)c2c1N | 11% | 23%
COc1ccc2c(CCNC(=O)CNc3nc(Cl)nc4nc[nH]c34)c[nH]c2c1 | -4% | -9%
CC(Cl)C(=O)NC(=O)NC(C)(C)C (stereo not given) | 0% | 4%[1.06 µM]
Cc1ccc(NC(=O)c2cccc(CS(C)=O)c2)c(C)c1 (stereo not given) | 0% | -7%[1.06 µM]
O=C(CCCn1c(=O)c2sccc2n(Cc2c(F)cccc2Cl)c1=O)NCc1ccccc1 | 5% | 9%
Cc1cc(C)cc(N2CC(c3nc(-c4ccccc4C)no3)CC2=O)c1 (stereo not given) | -5% | -3%
COc1ccc2nc(Nc3nc(C)c(Cc4ccc(Cl)cc4)c(=O)[nH]3)nc(C)c2c1 | 0% | 1%
COc1cccc(C(=O)NCC2OCCc3ccccc32)c1 (stereo not given) | 116%[activator] | -11%
CCN1CCN(CCCNC(=O)c2ccc3nc(Cc4ccccc4)oc3c2)CC1 | 1% | -10%
COc1cc(/C=C/c2ncc(C(=O)O)s2)cc(Cl)c1OC | 116%[activator] | 9%
CC(=O)Nc1ccc(/C=C(/C#N)C(=O)C(C)(C)C)cc1 | -7% | 0%
COc1ccc(N2CCN(C(=O)CSc3nc4ccccc4nc3Cc3ccc(Cl)cc3)CC2)cc1 | -30% | -17%
Cc1ccc(CSC2=Nc3ccccc3C3=NC(CCC(=O)NCCc4ccccc4)C(=O)N23)cc1 (stereo not given) | -17% | 7%
O=C(NCc1nc(-c2cccs2)no1)c1ccc2c(c1)OCCO2 | 79%[activator] | -10%
CCOc1cc(C2C3=C(CCCC3=O)OC3=C2C(=O)CCC3)cc(Br)c1OCC(=O)O | -3% | 2%
O=C(Cn1ncc2c([nH]c3ccccc32)c1=O)Nc1cccc(C(F)(F)F)c1 | -5% | -1%
CCOC(=O)c1nc(N(CC)c2ccc(OC)cc2)c2ccccc2n1 | ? | ?
CCOc1ccccc1Nc1nc(-c2sc(NC(=O)CC)nc2C)cs1 | 45%[activator] | 44%[activator]
C#CCN(C(=O)c1ccc(-c2cnco2)cc1)C1CCCCC1 | 11% | 21%
CCCC(C)NC(=O)Cc1c(C)[nH]c2ccc(F)cc12 (stereo not given) | -18% | -5%
CCOC(=O)C1=C(C)Nc2nc(SCc3ccccc3)nn2C1c1cccs1 (stereo not given) | -9% | -9%
CCc1noc(COc2ccc(C(=O)NC)cc2)n1 | 94%[activator] | -5%
CCn1c(=O)c2c(n3c(SCC(N)=O)nnc13)-c1ccccc1CC21CCCCC1 | -5% | 0%

Random excerpt: 2 entries already listed
SMILES | StopGo FLuc | StopGo RLuc
O=C(Cn1ncc2c([nH]c3ccccc32)c1=O)Nc1cccc(C(F)(F)F)c1 | -5% | -1%
CCOc1cc(C2C3=C(CCCC3=O)OC3=C2C(=O)CCC3)cc(Br)c1OCC(=O)O | -3% | 2%

Remaining list, next part:
SMILES | StopGo FLuc | StopGo RLuc
CC(=O)Nc1cccc(C(C)C2=CCCCC2)c1 (stereo not given) | 42%[activator] | 23%
COc1ccc(NC(=O)CSc2nnc3c4c5c(sc4ncn23)CCCC5)cc1 | 15% | -8%
CCN(C(=O)CCS(=O)(=O)c1cccc2nsnc12)c1cccc(C)c1 | -8% | 1%
COc1cccc(NC(=O)C2CCCN(S(=O)(=O)c3c(C)[nH]c(=O)[nH]c3=O)C2)c1 (stereo not given) | -4% | -13%
CCC(CC)C(=O)Nc1ccccc1SCc1cc(=O)c2cccc(C)c2[nH]1 | -14% | 4%
CCCN(C(=O)c1cc2c(s1)-c1c(C)cccc1OC2)c1ccc(OCC)cc1 | -9% | 4%
Cc1nc2c(c(C)c1CCC(=O)Nc1cccc(C(F)(F)F)c1)c(=O)n(C)c(=O)n2C | -22% | -11%
COc1ccc(Cl)cc1C(=O)Nc1c(NC2CCCCC2)c2ccccc2oc1=O | 0% | 1%
O=C(Nc1ccccc1C(=O)OCc1cc(=O)n2c3c(sc2n1)CCCC3)c1cccc(Cl)c1 | -17% | -9%
Cc1ccc(-c2c(C(=O)NCCc3ccc(Cl)cc3)oc(=O)c3ccccc23)cc1 | -5% | -2%
CCCn1nc(C(=O)Nc2ccc(OC)c(S(=O)(=O)N(C)C)c2)c2ccccc2c1=O | 0% | 87%[activator]
O=C(NCCc1ccccc1Cl)c1ccc2c(c1)nc1n2CCOC1 | 43%[activator] | 2%
COc1ccc2oc(=O)cc(CN3CCN(C(=O)c4ccccc4Br)CC3)c2c1 | 9% | ?
O=C(Oc1ccc2c(=O)c(Oc3ccccc3Br)coc2c1)c1ccccc1 | -4% | -4%
CC(=O)c1ccc(C(=O)Nc2ccc(SC3CCCC3)cc2)s1 | 65%[activator] | -14%
CC(C)Oc1cccc(NC(=O)c2ccccc2C(F)(F)F)c1 | -31%[115 µM] | 35%[activator][114 µM]
CN(C)C1(CNC(=O)COc2ccc3ccc(=O)oc3c2)CCCCC1 | -5% | -9%
Cc1ccc(NC(=O)Cn2c(=O)oc3cc(S(=O)(=O)N4CCC(C)CC4)ccc32)cc1Cl | -6% | 13%
CCCn1nc(C(=O)Nc2nnc(Cc3ccccc3)s2)c2ccccc2c1=O | 9% | -1%
CCC1CCCCN1C(=O)COC(=O)c1cnc2ccccc2n1 (stereo not given) | 0% | -3%
COc1cccc(NC(=O)c2cnn(-c3ccccc3)c2-n2cccc2)c1 | 12% | -8%
COC(=O)c1ccccc1NC(=O)CCCn1c(=O)c2cccn2c2cccnc21 | ? | ?
CCCn1nc(C(=O)Nc2nc(-c3ccc(NC(C)=O)cc3)cs2)c2ccccc2c1=O | 0% | -6%
O=C(Nc1ccc(Cl)c(-c2nc3ncccc3o2)c1)c1cccs1 | 53%[activator] | 28%
Cc1ccc(S(=O)(=O)Cc2nc(-c3ccc(C(=O)NCCCN4CCOCC4)cc3)oc2C)cc1 | 1% | 5%

Following part.
SMILES | StopGo FLuc | StopGo RLuc
Cc1ccc(-n2nc(CO)c(C(=O)NCCc3ccccc3)n2)cc1C | 13% | -7%
CC(Oc1ccc2c(-c3ccccc3)cc(=O)oc2c1)C(=O)N1CCOCC1 (stereo not given) | 24% | 12%
COc1cc2c(cc1OC)n(Cc1cccc(C(F)(F)F)c1)c(=O)n1nc(-c3ccccc3)nc21 | 6% | -3%
Cc1ccc(N2CC(NC(=O)c3cccs3)CC2=O)cc1C (stereo not given) | -8% | -9%
CC(=O)Oc1cncc(C(=O)O)c1 | 3% | 5%
FC(F)(F)c1cccc(/C=N/Nc2ccc(Cl)cc2)c1 | 0% | 17%
COc1ccc(CNc2ncnc3c2nnn3C)cc1 | -20% | -15%
COc1ccc(C(=O)Nc2cc(-c3cccc(C)c3)nn2-c2ccccc2)cc1 | 52%[activator] | 14%
CC(C)CC(NC(=O)Cn1c(=O)c2c(ncn2C)n(C)c1=O)c1ccccc1 (stereo not given) | -4% | -6%

Screening data: PubChem, National Center for Advancing Translational Sciences (NCATS)
